LANA-H2B inh – blocks KSHV LANA binding to histone H2A/H2B; AID 2629; 320,000 compounds, 0.6% hits; cell-free LANA-H2A/H2B peptide, fluorescence polarization; Q9QR71; inhibition, % (concentration not given with the values); in the data active = inhibition mostly above about 10%, no sharp cut-off; inactive = mostly below about 6.7%;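 also: stock transfer was 7.5 nL into about 10 µL; 0% = median of vehicle wells and 100% = median of positive control wells; one replicate is shown; the record names a cut of 25% in any replicate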
Target sequence (Q9QR71 whole entry, looked up): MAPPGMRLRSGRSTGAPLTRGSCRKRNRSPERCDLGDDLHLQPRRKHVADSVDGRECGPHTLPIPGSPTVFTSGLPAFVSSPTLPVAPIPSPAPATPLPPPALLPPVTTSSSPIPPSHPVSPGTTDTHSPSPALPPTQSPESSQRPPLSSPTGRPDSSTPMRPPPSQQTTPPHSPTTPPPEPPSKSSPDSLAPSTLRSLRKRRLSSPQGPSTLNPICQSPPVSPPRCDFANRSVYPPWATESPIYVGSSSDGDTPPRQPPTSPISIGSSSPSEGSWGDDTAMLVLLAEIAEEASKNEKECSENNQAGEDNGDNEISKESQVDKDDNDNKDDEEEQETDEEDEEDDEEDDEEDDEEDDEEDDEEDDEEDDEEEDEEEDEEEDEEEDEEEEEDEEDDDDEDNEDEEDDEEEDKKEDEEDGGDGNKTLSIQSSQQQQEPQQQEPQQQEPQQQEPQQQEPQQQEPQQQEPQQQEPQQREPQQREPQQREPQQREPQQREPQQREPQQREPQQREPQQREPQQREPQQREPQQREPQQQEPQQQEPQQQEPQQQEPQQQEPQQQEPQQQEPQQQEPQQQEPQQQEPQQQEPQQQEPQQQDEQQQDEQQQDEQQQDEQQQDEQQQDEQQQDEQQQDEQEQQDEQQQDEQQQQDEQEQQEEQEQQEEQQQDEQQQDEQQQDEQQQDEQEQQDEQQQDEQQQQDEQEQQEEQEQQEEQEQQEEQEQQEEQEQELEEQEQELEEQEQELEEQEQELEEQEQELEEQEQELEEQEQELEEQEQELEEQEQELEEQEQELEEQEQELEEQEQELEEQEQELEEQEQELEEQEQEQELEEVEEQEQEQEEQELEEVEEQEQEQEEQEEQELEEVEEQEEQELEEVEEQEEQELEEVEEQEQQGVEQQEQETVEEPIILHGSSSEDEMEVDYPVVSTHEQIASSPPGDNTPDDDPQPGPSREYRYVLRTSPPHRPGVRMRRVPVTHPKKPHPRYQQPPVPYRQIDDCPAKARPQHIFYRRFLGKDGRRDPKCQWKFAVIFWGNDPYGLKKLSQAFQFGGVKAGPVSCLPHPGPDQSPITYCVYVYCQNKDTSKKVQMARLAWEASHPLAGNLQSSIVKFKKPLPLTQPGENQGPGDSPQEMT
A1 inh – inhibitors of the anti-apoptotic protein A1, read as caspase activation; AID 2462; 330,000 compounds, 0.066% hits; MEF A1-2A-BIM cells, Caspase-Glo 3/7 luminescence, 3 h; percent of clofoctol response, vehicle zero; caspase activation, % (concentration not given with the values);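 active = over half of replicate activation scores above 10%, or exactly half above 10 with the replicate mean above 10; inconclusive = replicate mean below 10 yet half the replicates above 10; inactive = over half of replicates below 10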;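 also: wells of about 30 µL received 50 nL stock; many hits fall short of the cut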
T cruzi repl – blocks replication of Trypanosoma cruzi; inhibition, % (concentration not given with the values); 300,000 compounds, 1.4% hits; T. cruzi beta-gal in NIH3T3, luminescence, 90 h; AID 1885;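 active = mean inhibition across valid replicates above about 55%, limit read from the data; inconclusive = mean below that limit but half or more replicates reach it; inactive = mean below it, under half of replicates reach it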;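 also: signal also drops with host cell toxicity which is not excluded here; 0% = plate median of DMSO wells and 100% = zero luminescence signal; higher percent means less beta-gal luminescence so fewer parasites; stock transfer was 50 nL into about 50 µL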
Beta apoptosis – beta cell apoptosis inhibition; INS-1E cytokine-induced death, ATP luminescence, 48 h; percent of positive-control rescue, neutral wells zero; protection from apoptosis, % (no concentration beside the values); 300,000 compounds, 0.8% hits; AID 435005;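 active = all replicates at 75% or more, or half of them and the mean; inconclusive = half reach 75% but not the mean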;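 also: 0% = cytokine-treated negative control wells and 100% = positive control rescue; higher means more ATP so stronger rescue from cytokine killing; wells of about 40 µL received 100 nL stock; the first replicate is given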
Calb FLC – affects C. albicans growth with fluconazole | AID 1979 | 300,000 compounds, 0.57% hits | growth inhibition, % (test concentration not listed) | C. albicans CaCi-2 (fluconazole-resistant clinical isolate) + fluconazole, Alamar Blue growth, 48 h;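 active = most replicates above 75%; inconclusive = exactly half above 75%; inactive = most below 75%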;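 also: all wells also contain fluconazole at 8 µg/ml as a sub-toxic cotreatment; 0% = median of DMSO wells and 100% = median of geldanamycin control wells; wells of about 8 µL received 7.5 nL stock; the first replicate is given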
UCH37 inh – inhibitors of human deubiquitinating enzyme UCH37; Q9Y5K5; purified proteasome/UCH37, Ub-AMC cleavage fluorescence; inhibition, % (no concentration beside the values); 330,000 compounds, 0.33% hits;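 active = mean of two replicates above 20%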;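 also: 0% = compound-free wells with enzyme and 100% = wells lacking proteasome; stock transfer was 100 nL into about 20 µL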
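Reagent: Ub-AMC substrate; assay system: Proteasome-associated human UCH37 deubiquitinase; controls: no-proteasome and no-compound wells; read-out: % inhibition of Ub-AMC cleavage fluorescence; timing: 30 min preincubation with enzyme, 25 min cleavage at room temperature; signal: AMC fluorescence from Ub-AMC cleavage, excitation 355 nm, emission 460 nm; buffer or medium: Tris-HCl pH 7.4 plus ovalbumin, ATP-MgCl2, DTT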
Beta2AR agonist – activates human beta-2 adrenergic receptor causing internalization | P07550 | 340,000 compounds, 0.43% hits | Am2.2-beta2AR cells, FAP receptor internalization, flow cytometry; reference of the scale not given here | response, % (test concentration not listed);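 active = response above a set limit, near 3 SD of response in nonfluorescent compounds, cut at about 42% in these data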;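 also: stock transfer was 100 nL into about 11 µL; a reference agonist was the positive control; negative values mostly stem from fluorescent compounds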
RanGTP-Imp inh – disruptors of Ran-importin-beta complex formation – biochemical, FRET, CFP-Ran, YFP-importin-beta, homogeneous, primary screen. cell-free CFP-Ran/YFP-importin-beta FRET ratio. inhibition, % (concentration not given with the values). 300,000 compounds, 1.1% hits;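 active = most replicates above 15%; inconclusive = exactly half above 15%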;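 also: 0% = DMSO wells and 100% = Ran loaded with GDP instead of GTP; wells of about 40 µL received 100 nL stock; the first replicate is given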
Starred values were filed as active, the others as inactive; ? = inconclusive; nt = not tested or not shown.

SMILES	LANA-H2B inh	A1 inh	T cruzi repl	Beta apoptosis	Calb FLC	UCH37 inh	Beta2AR agonist	RanGTP-Imp inh
COc1ccc(NC(=O)[C@@H](NC(N)=O)C(C)C)cc1Cl	-0.1	-0.2	-15	-2	5	0.2	1	2.4
c1ccc2cc(C3CCCCC3)ncc2c1	0.3	-2.5	nt	4	nt	nt	-3	nt
O=C(COC(=O)CNC(=O)c1ccccc1F)Nc1cccnc1Cl	-0.6	-0.7	-13	-7	-18	1.7	-1	5.7
COc1ccc2sc(N(CCCN(C)C)C(=O)c3ccc(S(=O)(=O)N(C)Cc4ccccc4)cc3)nc2c1	-2.8	0.3	55*	nt	-12	3.5	15	2.3
Cc1c(N=C(N)/N=C(\N)Nc2ccccc2)c(=O)n(-c2ccccc2)n1C	0.6	0.6	-2	-7	15	nt	1	-3.3
CC(=O)Nc1cccc(NC(=O)CSc2nnc(Cc3cccn3C)n2CCc2ccccc2)c1	-0.8	0.7	2	-7	-10	6.3	-1	-6.9
COc1ccc(-n2c(C)c(C(C)=O)c(C(C)=O)c2C)cc1OC	3.6	0.0	-1	-6	-18	0.5	29	5.2
COc1cccc(CNCC(=O)N2C(C)CCCC2C)c1 (stereo unspecified)	0.1	0.7	3	-1	-6	1.8	-5	4.0
COc1cc(CN2CC(=O)N(c3ccccc3Cl)C2=S)cc(OC)c1OC	2.2	0.7	20	1	6	0.1	23	-3.9
Nn1c(SCC(=O)Nc2cccc(S(N)(=O)=O)c2)nnc1C1CC1	3.1	0.7	-8	6	-8	0.0	-4	-0.1
CNC(=O)c1[nH]cnc1C(=O)N[C@@H](CC(C)C)C(=O)OC(C)(C)C	-0.5	2.6	-1	-2	-9	nt	-5	-1.0
CC(=O)Nc1cccc(C(=O)N(CCc2ccccc2)Cc2ccccc2)c1	3.3	0.7	14	-5	8	4.1	-8	0.3
O=C(N[C@H]1C/C=C\C[C@@H](CC(=O)N(CCO)Cc2ccccc2)C(=O)NC[C@H](c2ccccc2)OC1=O)OCC1c2ccccc2-c2ccccc21	0.6	-0.1	nt	10	nt	-4.5	7	nt
O=C(CCl)Nc1ccccc1Sc1ccc(Cl)cc1	-2.4	0.3	49	-16	-2	3.6	26	?
CCOC(=O)CCCSc1nnc(CCCCCN2C(=O)c3cccc4cccc(c34)C2=O)o1	4.2	-0.2	15	-4	1	-28	-5	0.3
Cc1cc2c(C)nc(N/N=C/c3ccccc3)nc2o1	-3.1	0.8	22	3	1	nt	3	-2.2
O=C(N/N=C/C=C/c1ccccc1)c1n[nH]c2c1CCC2	-1.5	-0.3	-18	12	-2	nt	19	2.5
O=c1[nH]c2ccccc2nc1C(Cl)c1ccccc1 (stereo unspecified)	-1.0	0.0	-14	0	2	nt	nt	4.4
Cc1ccc2nc(SCC(=O)Nc3ccccc3F)nc(=O)n2c1	6.9	0.1	-14	-1	3	5.5	6	0.1
COc1ccc(C(=O)NCc2nnc(SCC(=O)Nc3nc4ccc(C)cc4s3)o2)cc1OC	0.2	-0.8	8	0	4	nt	10	8.5
CC(C)(C)C1CCC(OC(=O)c2ccncc2)CC1 (stereo unspecified)	2.2	-0.6	-9	-2	nt	-0.2	1	-4.8
CC(=NCc1ccco1)c1c(O)n(C2CCCCC2)c(=O)[nH]c1=O	6.3	-0.4	17	2	3	2.2	-6	2.1
COc1ccc(Cl)cc1N(CC(=O)Nc1ccccc1C(=O)N1CCOCC1)S(C)(=O)=O	0.9	-0.6	5	1	-3	-1.0	-2	-1.3
CCOc1ccc(C(=O)NC2CCN(CC(=O)NCc3ccccc3)CC2)cc1	3.1	-0.9	2	1	-8	1.4	-9	?
O=C(CNC(=O)C1CCCCC1)OCc1cc(=O)oc2ccc3ccccc3c12	5.5	1.2	13	-3	3	-439	5	-3.5
Remaining list, next part
SMILES	LANA-H2B inh	A1 inh	T cruzi repl	Beta apoptosis	Calb FLC	UCH37 inh	Beta2AR agonist	RanGTP-Imp inh
Cn1nc(C(=O)NCC2CCCO2)c2ccccc2c1=O (stereo unspecified)	-5.4	0.0	3	-11	0	4.0	3	-3.4
CCOC(=O)C1=C(CC)Nc2ccccc2N=C1N	-0.2	-0.2	-7	-2	0	2.2	6	3.0
Cc1onc(-c2ccccc2)c1CNS(=O)(=O)c1ccc(F)cc1F	5.2	1.0	-1	-1	4	0.0	0	0.7
Cc1ccc(NC(=O)c2ccc3c(c2)OCCO3)nc1	-1.3	-8.1	2	4	3	3.5	-9	nt
CCOC(=O)c1sc(NC(=O)C2CSC3(C)CCC(=O)N23)nc1C (stereo unspecified)	-3.3	1.1	nt	-5	nt	4.0	-4	nt
O=C1c2ccsc2SCCN1Cc1c(Cl)cccc1Cl	3.4	-0.2	26	nt	43	0.5	-2	3.9
Cc1ccc(CNC(=O)C2CCC(=O)N(CCc3cccc(F)c3)C2)cc1 (stereo unspecified)	-2.3	0.4	-1	-4	-4	0.7	18	1.3
Cc1ccc(NC(=S)NC2CCN(Cc3ccccc3)CC2)cc1	-0.7	-0.3	19	-7	3	0.0	3	-3.2
COC(=O)COc1cc(=O)oc2ccc(NS(=O)(=O)c3ccccc3)cc12	7.8	0.5	-12	-5	-9	-0.8	5	4.2
Cc1cc(C)c(S(=O)(=O)N2CCCOC2CNC(=O)C(=O)NCc2cccs2)c(C)c1 (stereo unspecified)	-1.5	-0.2	-7	-7	1	4.2	-5	-6.3
CC(C)CNC(=O)c1oc2ccccc2c1COc1ccccc1	-4.4	0.4	-1	6	-2	0.1	-5	11
O=C(O)c1cc(C(F)(F)F)nc2ccccc12	5.8	1.5	-31	-4	-8	-1.5	-2	-5.1
COC(=O)[C@@H](Cc1c[nH]c2ccccc12)NC(=O)CNC(=O)c1ccccc1OC	4.7	0.1	-11	1	5	7.1	8	2.2
O=C(Nc1cccc(Br)c1)c1cccc(OC(=S)N2CCOCC2)c1	1.7	1.0	20	nt	18	nt	9	5.5
CCOC(=O)N1CCN(C(=O)CN(c2cccc(C)c2)S(=O)(=O)c2ccccc2)CC1	1.0	0.4	-9	5	2	0.1	3	0.1
Cc1cccc(-c2nnc(SCc3ccccc3)o2)c1	-0.8	-0.8	-21	0	-13	1.8	-4	-2.1
CCOc1ccc(-c2nnc3ccc(SCC(=O)Nc4cc(C)on4)nn23)cc1	2.6	1.6	3	0	-2	-17	-5	1.7
CCC(C)(C)c1ccc(OCCCC[n+]2cccc(C)c2)c(C(C)(C)CC)c1	nt	nt	60*	nt	-1	10	13	1.5
Cc1ccc(C)c(OCCn2c(=O)c3c(ncn3C3CCCC3)n(Cc3ccccc3)c2=O)c1	-4.7	-0.5	37	18	nt	4.1	-8	nt
O=C(CSc1nnc(-c2cccnc2)n1-c1ccccc1)N1CCN(c2ccc(F)cc2)CC1	4.6	-0.1	15	0	8	0.2	3	3.3
Cc1ccc(NC(=O)CCC(=O)OC(C(=O)c2ccc(C)c(C)c2)c2ccccc2)c(C)c1 (stereo unspecified)	4.2	-1.8	0	1	33	2.7	-8	?
Cc1cccc(C)c1NC(=O)c1cccc(COc2cc(Cl)ccc2Cl)c1	-3.9	-0.2	10	9	0	5.1	8	-0.6
Cc1ccccc1OCCn1cc(/C=C(\C#N)C(=O)NCc2ccco2)c2ccccc21	1.2	0.8	4	6	9	-49	2	10
COc1ccc(CNC(=O)[C@@H]2CC=C[C@@H]3CCN(Cc4ccc(Cl)c(Cl)c4)C(=O)[C@@H]32)cc1	3.3	0.4	28	2	-2	3.2	-6	-6.2
CCNC(=O)CC1SC(=Nc2ccc(C)cc2)NC1=O (stereo unspecified)	0.7	1.8	-6	1	?	3.0	-1	-0.9

Some of the entries so far, comma-delimited.
Molecule,LANA-H2B inh,A1 inh,T cruzi repl,Beta apoptosis,Calb FLC,UCH37 inh,Beta2AR agonist,RanGTP-Imp inh
CCOC(=O)N1CCN(C(=O)CN(c2cccc(C)c2)S(=O)(=O)c2ccccc2)CC1,1.0,0.4,-9,5,2,0.1,3,0.1
Cc1cccc(-c2nnc(SCc3ccccc3)o2)c1,-0.8,-0.8,-21,0,-13,1.8,-4,-2.1

The listing continues:
SMILES	LANA-H2B inh	A1 inh	T cruzi repl	Beta apoptosis	Calb FLC	UCH37 inh	Beta2AR agonist	RanGTP-Imp inh
Cc1ccc(S(=O)(=O)N2CCCCC2C(=O)NCc2ccco2)cc1 (stereo unspecified)	5.2	0.6	-28	-6	-4	3.7	4	-2.1
COc1cccc(-n2nnc3c(=O)n(CC(=O)N4CCC(Cc5ccccc5)CC4)cnc32)c1	-1.3	0.0	27	2	-18	-0.2	-4	4.2
O=C(N/N=C/c1ccc(F)cc1)c1cc(-c2ccco2)nc2ccccc12	-1.1	-0.3	-13	nt	4	nt	-17	-5.7
CN(C)c1cccc2c(S(=O)(=O)Nc3ccccn3)cccc12	6.9	-1.0	-2	-10	18	-3.6	0	0.5
CCc1nnc(NC(=O)CCC(=O)NC2CCCCCCC2)s1	-5.3	-1.4	6	nt	1	-0.1	3	5.8
Cc1ccc(S(=O)(=O)NCCc2cc3ccc(C)cc3[nH]c2=O)cc1	0.6	0.9	9	-5	-3	-0.9	-16	0.4

Molecules from the list above that contain a Cl atom (nine):
SMILES	LANA-H2B inh	A1 inh	T cruzi repl	Beta apoptosis	Calb FLC	UCH37 inh	Beta2AR agonist	RanGTP-Imp inh
COc1ccc(NC(=O)[C@@H](NC(N)=O)C(C)C)cc1Cl	-0.1	-0.2	-15	-2	5	0.2	1	2.4
O=C(COC(=O)CNC(=O)c1ccccc1F)Nc1cccnc1Cl	-0.6	-0.7	-13	-7	-18	1.7	-1	5.7
COc1cc(CN2CC(=O)N(c3ccccc3Cl)C2=S)cc(OC)c1OC	2.2	0.7	20	1	6	0.1	23	-3.9
O=C(CCl)Nc1ccccc1Sc1ccc(Cl)cc1	-2.4	0.3	49	-16	-2	3.6	26	?
O=c1[nH]c2ccccc2nc1C(Cl)c1ccccc1 (stereo unspecified)	-1.0	0.0	-14	0	2	nt	nt	4.4
COc1ccc(Cl)cc1N(CC(=O)Nc1ccccc1C(=O)N1CCOCC1)S(C)(=O)=O	0.9	-0.6	5	1	-3	-1.0	-2	-1.3
O=C1c2ccsc2SCCN1Cc1c(Cl)cccc1Cl	3.4	-0.2	26	nt	43	0.5	-2	3.9
Cc1cccc(C)c1NC(=O)c1cccc(COc2cc(Cl)ccc2Cl)c1	-3.9	-0.2	10	9	0	5.1	8	-0.6
COc1ccc(CNC(=O)[C@@H]2CC=C[C@@H]3CCN(Cc4ccc(Cl)c(Cl)c4)C(=O)[C@@H]32)cc1	3.3	0.4	28	2	-2	3.2	-6	-6.2
